Compound activity: PubChem BioAssay, Emory University Molecular Libraries Screening Center
Measles inh: inhibitors of measles virus growth in infected cells; infected Vero cells, GFP fluorescence, 64 h; stronger effect = lower value; z-score (no concentration beside the values); 33,000 tested, 0.1% active; AID 745;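 active = z-score under -3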;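 note: score is relative to mean and SD of the compound wells of a plate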
Numbers without * were called inactive. An excerpt; count on the stated rates, not on these rows.

Measles inh	structure
1.46	Fc1cccc(Cn2cc(C(=S)N3CCCCC3)c3ccccc32)c1
-0.3	CCOc1ccc(-n2c(=O)c3sccc3n(CC(=O)NC3CCCCC3)c2=O)cc1
-1.11	O=[N+]([O-])c1ccc(C2Nc3c(O)ccc(Br)c3C3C=CCC32)cc1 (stereo unspecified)
-2.26	CCOC(=O)C1CCCN(C(CC)C(=O)N2CCCc3c2c(=O)oc2ccc(O)cc32)C1 (stereo unspecified)
0.13	Cc1ccc(CNC(=O)C(C)C2Sc3ccccc3N(Cc3cccc(Cl)c3)C2=O)cc1 (stereo unspecified)
2.3	COc1cccc(C2NN(C(=O)c3cccc(Br)c3)C3C(=O)N(c4ccc(C)cc4)C(=O)C23)c1 (stereo unspecified)
-0.75	COC(=O)c1ccc(NC(=O)COc2ccccc2OC)cc1
-0.49	CCC(C)C(NS(=O)(=O)c1ccc(C)cc1)C(=O)NC1CCCC1 (stereo unspecified)
-0.69	CCn1c(C(C)NC(=O)c2ccccc2)nc2ccccc21 (stereo unspecified)
0.31	Cc1ccc(OCC(=O)Nc2ccccc2O)cc1
-1.27	Cc1ccc(C)c(Cc2c(C)nc3c(C(=O)NC4CCCC4)cnn3c2C)c1
0.2	CCOC(=O)c1sc(=S)n(-c2ccc(Cl)cc2)c1C
-0.62	Oc1ccc(Cl)cc1C(C#Cc1ccccc1)N1CCOCC1 (stereo unspecified)
0.91	Cc1cccc(C)c1OCCNC(=O)c1ccc2ccccc2n1
0.9	CCn1cnc2sc(C(=O)N3CCN(c4ccc(F)cc4)CC3)c(C)c2c1=O
1.96	CC1=C(C(C)C2NCC(C)CC2O)CCC2C3=C(C(=O)C12)C1(C)CCC(O)CC1=CC3 (stereo unspecified)
0.74	Cc1ccc(S(=O)(=O)NCC(=O)N2CCOCC2)cc1
0.51	CCOc1ccccc1NC(=O)c1ccc(NC(=O)c2ccc(C)cc2)cc1
-0.69	Cc1ccc(SCC(=O)N2CCCc3ccccc32)cc1
1.29	CCn1c(=S)sc2c(=O)[nH]c(C)nc21
1.17	CCOC(=O)c1cnc2ccc(C(=O)OC)cc2c1Nc1ccc(Cl)cc1C
-0.37	Cc1ccc(-c2noc(CCC(=O)Nc3cc(C)ccn3)n2)cc1
0.71	Cc1sc2ncn(CC(=O)NCCCN3CCC(C)CC3)c(=O)c2c1S(=O)(=O)N1CCC(C)CC1
0.56	CCC(=O)N1CCc2cc(Br)cc(S(=O)(=O)CCC(=O)Nc3ccc(Br)cc3C)c21
0.64	CCOC(=O)C1CCN(C(=O)CN2C(=O)C(CC)Oc3ccccc32)CC1 (stereo unspecified)
-0.47	CCc1ccccc1NC(=O)C1CC(=O)NC(=Nc2cc(OC)ccc2OC)S1 (stereo unspecified)
0.62	CCCCC1CC(CN2C(=O)NC(C)(C)C2=O)OC1=O (stereo unspecified)
-0.33	CCC(=O)N1CCc2cc(Br)cc(S(=O)(=O)N3CCCC(C(=O)N4CCN(c5cccc(C(F)(F)F)c5)CC4)C3)c21 (stereo unspecified)
-1.03	COC(=O)c1cc(Cc2ccc(N)c(C(=O)OC)c2)ccc1N
1.61	CCOC(=O)CN(Cc1ccccc1)S(=O)(=O)c1ccc(F)c(C)c1
0.43	CCCOC(=O)C1=C(C)NC2=C(C(=O)CCC2)C1c1ccccc1OCc1ccccc1 (stereo unspecified)
2.12	CCN(CC)S(=O)(=O)c1ccc2oc(C(=O)N3CCCC3)c(C)c2c1
-0.45	Cc1cc(C)c2oc(-c3ccc(NC(=O)c4ccc(Br)o4)cc3)nc2c1
-0.26	Cc1cc(C(=O)Nc2cccc3ccccc23)ccc1[N+](=O)[O-]
-2.2	Cc1ccccc1C(=O)Nc1ccc2nc(SCC(=O)Nc3ccccc3)sc2c1
0.71	Cc1sc2ncn(CC(=O)NCCCC(=O)NC3CCCCCC3)c(=O)c2c1C
1.79	CC(=O)C1=C(O)C(=O)N(CC2CCCO2)C1c1ccccc1 (stereo unspecified)
-1.62	CC(=O)c1c(C)[nH]c(C(=O)NCCC2=CCCCC2)c1C
-0.97	CCOc1ccc(-c2nn(-c3ccccc3)cc2C2NC(=O)NC(C)=C2C(=O)OC)cc1 (stereo unspecified)
0.28	COc1cc(OC)cc(C(=O)Nc2ccc(C)cc2C)c1

Among those listed so far, 2 have an NH in an aromatic ring:
Measles inh	structure
1.29	CCn1c(=S)sc2c(=O)[nH]c(C)nc21
-1.62	CC(=O)c1c(C)[nH]c(C(=O)NCCC2=CCCCC2)c1C

(continued)
Measles inh	structure
-0.79	CC12C(=O)C(C)(C(c3ccccc3)=C1c1ccccc1)C1C(=O)N(c3cccc(C(F)(F)F)c3)C(=O)C12 (stereo unspecified)
-0.22	O=C(NCc1ccccc1)c1ccc(Cl)c(S(=O)(=O)N2CCOCC2)c1
-0.81	O=C(c1cccc(S(=O)(=O)Nc2ccc(Cl)cc2)c1)N1CCCc2ccccc21
1.45	CCOc1ccc(NC(=O)c2cc(S(=O)(=O)N3CCCC3)ccc2F)cc1
0.52	O=C(c1ccccc1)c1c[nH]c2cc3c(cc2c1=O)OCCO3
-0.3	COc1cc(Nc2cc(N3CCN(C(=O)c4ccco4)CC3)c3noc4c3c2C(=O)c2ccccc2-4)cc(OC)c1OC
0.12	CCn1c(SCc2ccccc2)nc2c1c(=O)[nH]c(=O)n2C
-1.39	COc1cccc(NC(=O)CSc2cc(=O)n(C)c3cc(Cl)ccc23)c1
0.59	Cc1ccc(/C(O)=C2\C(=O)C(=O)N(CCCN3CCOCC3)C2c2ccco2)cc1 (stereo unspecified)
-0.4	Cc1ccc(C2CC(c3ccc(Br)cc3)n3nnnc3N2)cc1 (stereo unspecified)
0.85	COC(=O)C1=C(C)Nc2nnnn2C1c1ccccc1 (stereo unspecified)
-0.37	COC(=O)C1c2ccccc2-c2ccccc21
0.1	Cc1ccc(-n2c(SCC(N)=O)nc3c(c2=O)SCC3)cc1
-1.77	O=c1c2cc(F)ccc2[nH]c(=S)n1C1CCCCC1
-0.35	O=C(NCC1CCCO1)C1c2ccccc2Oc2ccccc21 (stereo unspecified)
-0.27	Oc1ccccc1CN1CCCN(Cc2ccccc2O)C1
1.23	COc1ccc2ccccc2c1C1NC(=S)NC(C)=C1C(=O)Nc1ccccc1C (stereo unspecified)
-1.61	CCC(C)N1C(=O)CN(C2CCCCC2)C(=O)C1c1ccc(OC)cc1 (stereo unspecified)
-1.26	CCOC(=O)c1[nH]c2ccc(F)cc2c1NC(=O)CN(CC)CC
0.67	COc1ccc(C)cc1NC(=O)C1c2ccccc2C(=O)N(C)C1c1cccs1 (stereo unspecified)

Gathered by group, the entries above with a CF3 group
Measles inh	structure
-0.33	CCC(=O)N1CCc2cc(Br)cc(S(=O)(=O)N3CCCC(C(=O)N4CCN(c5cccc(C(F)(F)F)c5)CC4)C3)c21 (stereo unspecified)
-0.79	CC12C(=O)C(C)(C(c3ccccc3)=C1c1ccccc1)C1C(=O)N(c3cccc(C(F)(F)F)c3)C(=O)C12 (stereo unspecified)

(listing goes on)
Measles inh	structure
0.43	COc1cccc(C(=O)Nc2c3c(nn2-c2cccc(Cl)c2)CS(=O)C3)c1 (stereo unspecified)
0.68	CCCCCCNc1ncnc2c1sc1nc(C)c3c(c12)CCCC3
0.24	N#Cc1c(C(F)(F)F)cc(-c2cccs2)nc1SCC(O)CN1CCSCC1 (stereo unspecified)
0.03	CSc1oc(-c2ccccc2)nc1S(=O)(=O)c1ccc(F)cc1
0.11	COc1cc(OC)cc(-n2c(=O)c3sccc3n(Cc3ccc(Cl)cc3)c2=O)c1
-0.76	COc1cccc(-n2c(=O)c3c4c(sc3n(CC(=O)NCc3ccccc3Cl)c2=O)CCCC4)c1
-0.79	CCCc1c(C)nc2c(C(=O)NCc3ccccc3)c[nH]n2c1=O
0.78	COc1ccc2c(c1)CCc1c(C(=O)Nc3cccnc3Cl)noc1-2
0.24	O=C(c1ccc2c(c1)[nH]c(=S)n1c3ccccc3nc21)N1CCN(C2CCCCC2)CC1
-0.75	Cc1cc(NC(=O)CS(=O)(=O)c2cn(C)c3ccccc23)no1
0.27	O=C1CC(c2ccccc2)CN1C(=O)c1cccnc1 (stereo unspecified)
-0.62	CCN1C(=O)NC(c2ccccc2Cl)C(C(=O)OCCOC)=C1C (stereo unspecified)
-1.99	O=C1CC(c2ccccc2)Oc2ccccc21 (stereo unspecified)
-0.32	COc1cccc(CNC(=O)C2CCN(S(=O)(=O)N3CC(C)CC(C)C3)CC2)c1 (stereo unspecified)
-1.05	O=C(c1cccc(F)c1)N(c1ccccc1)c1ccc2ccccc2c1
0.37	CCOC(=O)CSc1nc2ccsc2c(=O)n1Cc1ccc2c(c1)OCO2
0.99	O=C(NCCCn1ccnc1)c1cccc([N+](=O)[O-])c1
-0.15	Cc1cccc(-c2nc3cc(NC(=O)c4ccccc4F)ccc3o2)c1
0.03	CCS(=O)(=O)c1cccc2c(S(=O)(=O)CC)cccc12
0.6	COC(=O)c1cc(C(=O)Nc2ccncc2)cc([N+](=O)[O-])c1
0.01	c1ccc(-c2cc(-c3ccncc3)c3c(ccc4ccccc43)n2)cc1
-0.11	Nc1ncnc2nc(SCCc3ccccc3)[nH]c12
-0.76	Cc1ccc([N+](=O)[O-])cc1S(=O)(=O)NC(CC(=O)O)c1ccco1 (stereo unspecified)
-0.47	COc1ccc2cc3cc(C(=O)N4CCCC4)oc3nc2c1
0.08	O=C(NCc1ccccc1)c1ccc2c(=O)n(-c3cc(C(F)(F)F)ccc3Cl)c(=S)[nH]c2c1
1.36	CCS(=O)(=O)N1CCN(S(=O)(=O)c2ccc(Cl)cc2)CC1
-0.3	COc1ccc(NC(=O)N2c3ccccc3Sc3ccccc32)cc1Cl
0.13	Cc1ccc(CN2C(=O)c3ccccc3Sc3ccc(C(=O)O)cc32)cc1
0.51	CC(=O)Nc1ccc(S(=O)(=O)NC2=NCN(C3CCCCC3)CN2)cc1
-1.94	COCCCNC(=O)c1c[nH]c2ccc(S(=O)(=O)N(C)c3ccccc3C)cc2c1=O
-0.73	Cc1ccccc1-c1nnn(CC(=O)Nc2ccc(OC(F)(F)F)cc2)n1
0.97	C=CCNc1nc(C2(C)CC3(CC(COCC(C)C)OC3=O)C(=O)O2)cs1 (stereo unspecified)
0.81	Cc1ccn2c(NC(=O)C(C)(C)Oc3ccc(Cl)cc3)c(-c3cccs3)nc2c1
-0.07	CC(=O)Oc1c(C)cc2sc3ccccc3c(=O)c2c1C
1.06	Cc1[nH]nc(SCC(=O)N2CCCCCC2)c1[N+](=O)[O-]
-1.26	COc1ccc(C(=O)Nc2c3c(nn2-c2ccccc2C)CSC3)cc1
-0.73	CC(NC(=O)c1cccc(F)c1)c1ccccc1 (stereo unspecified)
2.22	CCN(CC)C(=O)c1cn(CC)c(=O)c2cc(OC)c(OC)cc12
-0.65	Cc1cc2nc(Cc3cccc([N+](=O)[O-])c3)c(=O)n(C)c2cc1C
-0.01	COc1ccccc1NC(=O)C1c2ccccc2C(=O)N(C)C1c1cccs1 (stereo unspecified)
0.86	Cn1cnnc1SCC(=O)Nc1ccc(Br)c2cccnc12
-0.01	O=C(c1cc(Nc2ccccc2)nc2ccccc12)N1CCCC1
-0.51	CC(C)N(C)CC#CC(O)(c1ccccc1)c1ccccc1
0.06	O=C(Cn1c(=O)oc2cc(Cl)ccc21)N1CCN(C(c2ccccc2)c2ccc(Cl)cc2)CC1 (stereo unspecified)
-1.01	CCN(CC)S(=O)(=O)c1ccc2c(c1)C(=O)c1cc(S(=O)(=O)N(CC)CC)ccc1-2
0.56	COc1ccccc1-n1cnc2cc(C(=O)NC3CCCC3)ccc21
-0.81	CCOC(=O)CC(NC(=O)c1ccc([N+](=O)[O-])cc1)c1ccc(OC)cc1 (stereo unspecified)
-0.69	COc1ccc(-n2nc3ccc(NC(=O)c4cccc(Br)c4)cc3n2)cc1
1.84	COCCCNc1nc2c(c(=O)n(C)c(=O)n2C)n1Cc1ccccc1Cl
0.06	O=C(NC1CCCC1)c1ccc2c(=O)[nH]c3c(C(=O)NC4CCCC4)sc(=S)n3c2c1
-0.82	COc1ccccc1-n1nc(C(=O)Nc2ccccn2)c2ccccc2c1=O
-0.18	Cc1ccnc(N2C(=O)c3cccnc3C2=O)c1
-0.3	CCOc1ccc(NC(=O)c2ccc(F)c(S(=O)(=O)NC3CCCC3)c2)cc1
-0.64	O=C(Nc1ccc(F)cc1)c1cc2ccccc2c(=O)o1
3.27	CC(=O)Nc1ccc(NS(=O)(=O)c2cc(Br)cc3c2N(C(=O)C2CC2)CC3)cc1
-0.46	Cc1ccc2nc(SCc3nc4ccccc4[nH]3)[nH]c2c1
-0.01	Cc1ccc(CS(=O)(=O)Cc2ccc(C(=O)NCc3cccnc3)o2)cc1
0.93	O=C(Nc1ccccc1Cl)c1cc(S(=O)(=O)N2CCCc3ccccc32)ccc1F
-0.87	CC1=C(C(=O)OCCOc2ccccc2)C(c2ccc(Br)cc2)C2=C(CCCC2=O)N1 (stereo unspecified)
0.28	CCCCN1C(=O)CN(C2CCC(C)CC2)C(=O)C1c1ccc(OC(C)C)c(OC)c1 (stereo unspecified)

Some of the entries so far, with bars between the fields.
Compound | Measles inh
CC(C)N(C)CC#CC(O)(c1ccccc1)c1ccccc1 | -0.51
CCOc1ccc(NC(=O)c2ccc(F)c(S(=O)(=O)NC3CCCC3)c2)cc1 | -0.3
Cc1ccnc(N2C(=O)c3cccnc3C2=O)c1 | -0.18
O=C(c1cc(Nc2ccccc2)nc2ccccc12)N1CCCC1 | -0.01
Cc1ccc2nc(SCc3nc4ccccc4[nH]3)[nH]c2c1 | -0.46
COc1ccc(-n2nc3ccc(NC(=O)c4cccc(Br)c4)cc3n2)cc1 | -0.69

Continuation:
Measles inh	structure
0.29	CCCCOC(=O)C1=C(C)NC2=C(C(=O)CCC2)C1c1cccc2ccccc12 (stereo unspecified)
0.25	O=C(Nc1c2c(nn1-c1cccc(Cl)c1)CS(=O)(=O)C2)c1cc(Cl)ccc1[N+](=O)[O-]
-0.92	COc1ccc(N2CN=C3SC(CO)(CO)C(=O)N3C2)cc1
-1.06	Cc1nc(Nc2ccc(Oc3ccccc3)cc2)c2cc(C)sc2n1

Individual results from the entries so far:
COc1ccc(N2CN=C3SC(CO)(CO)C(=O)N3C2)cc1 in Measles inh has -0.92
Cc1nc(Nc2ccc(Oc3ccccc3)cc2)c2cc(C)sc2n1 in Measles inh has -1.06
